H5N1 antiviral: antiviral screen in MDCK cells, H5N1 avian flu. 96,000 tested, 0.07% active. inhibition, % at 50 µM. cytopathic effect, luminescence, 72 h; active compounds read high; no value below 0 was filed and about half of the inactive calls have no number; reference of the scale not given here; in the data active means inhibition above about 25%
Starred values were filed as active, the others as inactive; i = inactive.

SMILES | H5N1 antiviral
Cc1ccccc1-c1nc(CN2CCC(C(=O)NCCCN3CCOCC3)CC2)c(C)o1 | i
Cc1cc(C(=O)OCC(=O)N2CC(=O)Nc3ccccc32)no1 | i
COc1ccc(NC(=O)CCc2nc(-c3ccc(C)cc3)no2)c(OC)c1 | i
NC(=O)C1CC(=O)N(c2ccc(OCC(=O)Nc3cccc(C(F)(F)F)c3)cc2)C1 (configuration not stated) | i
CCOc1ccc(NC(=O)c2cn(-c3ccc(OCC)cc3)c(=O)c3cc(OC)c(OC)cc23)cc1 | i
O=C(CSc1nnc(Nc2ccccc2)s1)Nc1ccc(S(=O)(=O)N2CCOCC2)cc1 | 0.4
Cc1cc(=O)oc2cc(OCC(=O)N3c4ccccc4CC3C)ccc12 (configuration not stated) | i
Cc1ccc(CN2C(=O)CCSc3ccc(Cl)cc32)cc1 | 2.2
COc1cccc(C2=NC(C)(C)NC(c3ccccc3O)C2)c1 (configuration not stated) | i
Clc1ccc(SCCCCn2cncn2)cc1 | 0.3
CC(=O)N(Cc1cc2cc(C)c(C)cc2n2nnnc12)CC1COCCO1 (configuration not stated) | 1.4
FC(F)(F)c1cccc(N2CCN(CC3CC4C=CC3C4)CC2)c1 (configuration not stated) | 0.6
COc1ccccc1NC(=O)CSc1nnc(C)o1 | 0.5
O=C(CSc1ncnc2nc[nH]c12)N1CCOCC1 | 0.9
CCCCOC(=O)C1=C(C)Nc2ncnn2C1c1ccc(OC)c(OC)c1 (configuration not stated) | 0.1

Molecules listed so far that contain fluorine, in the order listed:
SMILES | H5N1 antiviral
NC(=O)C1CC(=O)N(c2ccc(OCC(=O)Nc3cccc(C(F)(F)F)c3)cc2)C1 (configuration not stated) | i
FC(F)(F)c1cccc(N2CCN(CC3CC4C=CC3C4)CC2)c1 (configuration not stated) | 0.6

(next part)
SMILES | H5N1 antiviral
Oc1ccc2c(c1)oc1cc(O)ccc12 | i
Cc1cc(C)c(C(=O)OCCNC(=O)c2cccnc2)cc1C | 0.5
COC(=O)C1=C(N)Oc2c(c(=O)oc3ccccc23)C1c1cccnc1 (configuration not stated) | 0.7
CN(C)c1ccc(NC(=O)CSCc2nc3c(nnn3Cc3ccc(F)cc3)c(=O)[nH]2)cc1 | 1.3
COc1cccc(CN2CCN(C(=O)c3cccc4ccccc34)CC2)c1OC | i
CCOC(=O)C1=C(N)n2c(s/c(=C\c3ccco3)c2=O)=C(C(=O)OC(C)C)C1c1ccco1 (configuration not stated) | 1.2
CCN1CCN(CC(=O)NC2CCCCC2)C(=O)C1=O | 0.9
CCOc1ccc(C(=O)NCc2ccco2)cc1 | i
CC(=O)c1cc(C#N)c(SCc2ccccc2)nc1C | 1.1
Cc1cc(NC(=O)C2CCCN(S(=O)(=O)c3c(C)noc3C)C2)n[nH]1 (configuration not stated) | 0.5
Clc1ccc2c(c1)[C@H]1OCC[C@H]1[C@@H](c1ccco1)N2 | 20
COc1cc(-c2cc(C(=O)O)c3cc4c(cc3n2)OCCO4)cc(OC)c1OC | 2.2
O=C(Nc1cccc(C(F)(F)F)c1)C1C2CC3OC(=O)C1C3C2 (configuration not stated) | i
CCn1cc(SCC(=O)N2CCOCC2)c2ccccc21 | 1.9
O=C1C=C(NCc2ccc(Cl)c(Cl)c2)CC1 | i
CC(=O)C1=C(O)C(=O)N(c2ccc(Br)cn2)C1c1ccccc1F (configuration not stated) | 0.5
Oc1ccccc1CNn1cnnc1 | 1.1
Cc1ccc(N2C(=O)NC(=O)/C(=C/c3ccc(OC(=O)c4cccs4)cc3)C2=O)cc1 | i
CC(=O)NC(CCS(C)(=O)=O)C(=O)Nc1ccccc1 (configuration not stated) | i
Cc1nnc(SCC(=O)Nc2nsc(-c3ccc(C(C)(C)C)cc3)n2)s1 | 1.1
Cc1c(NC(=O)c2cc(C(C)C)on2)c(=O)n(-c2ccccc2)n1C | i
O=[N+]([O-])c1cc(-n2cnnn2)ccc1N1CCC(Cc2ccccc2)CC1 | i
COc1cccc2c(=O)n(CC(=O)Nc3ccc(F)cc3)ccc12 | 0.1
Cc1cc(C)c(COCc2cc(/C=N/O)c(C)cc2C)cc1/C=N/O | 3.2
CCC(=NCCCN(CC)CC)c1c(O)n(C2CCCCC2)c(=O)[nH]c1=O | i
COC(=O)c1ccc(N2C(=O)CC(N3CCC(O)(c4ccc(Br)cc4)CC3)C2=O)cc1 (configuration not stated) | 0.5
CCCCCCN=C(C)c1c(O)n(CCCC)c(=O)[nH]c1=O | 0.1
CC1CCN(C(=O)CCc2ccc(S(=O)(=O)NC(C)C)cc2)CC1 | 0.3
CC[n+]1c(P(=O)([O-])c2ccccc2)[nH]c2ccccc21 | i
COc1ccccc1NC(=O)CSc1nccc(=O)[nH]1 | 0.3
CC(C)C(OC(=O)c1ccco1)C(=O)NC1CCCCC1 (configuration not stated) | 0.5
COc1ccc2nc(/N=C(\N)NC(=O)C(C)(C)C)nc(C)c2c1 | 2.4
O=C(Oc1ccc(-c2cnc3ccccc3n2)cc1)c1ccco1 | 2.7
O=C(O)CCc1ccc(-c2ccccc2)n1NC(=O)c1ccco1 | i
CN1CCN(Cc2nc3ccccc3c(=O)[nH]2)CC1 | 1.1
CCOc1cccc(NC(=O)Cc2cccs2)c1 | i
Cc1cc2c3c(c1C)C1(C(=O)N3C(C)(C)CC2C)C(C#N)=C(N)Oc2cc(O)ccc21 (configuration not stated) | 3.0
CCS(=O)(=O)c1nc(NC(C)=O)n[nH]1 | i
C/C(Nc1ccc(F)cc1)=C(/C#N)C(N)=O | 0.6
c1ccc(Cn2nnnc2C(c2ccccn2)N2CCN(c3ccccc3)CC2)cc1 (configuration not stated) | 13
Cc1ccc(-c2csc(N(Cc3ccccc3)C(=O)COc3ccccc3)n2)cc1 | i
O=C(CCCNS(=O)(=O)c1ccc(Br)cc1)N1CC[C@@]2(O)CCCC[C@H]2C1 | i
N#C/C(=C(/O)Cc1cccc2ccccc12)c1nc2ccccc2s1 | i
COc1ccc(NC(=O)c2ccc(S(=O)(=O)N(C)C)cc2)cc1OC | 0.3
CCCNC(=O)COC(=O)c1ccc(Cl)c(S(=O)(=O)N2CCCC2)c1 | 0.9
Cc1cc(C(=O)OCC(=O)c2ccc3c(c2)OCCO3)c(C)o1 | i
Cc1ccc(S(=O)(=O)NCCC(=O)Nc2nnc(C3CC3)s2)cc1C | 0.5
COc1ccccc1CN1C(=O)C2CC=CCC2C1=O (configuration not stated) | 2.1
COCCn1c(-c2ccc(OC(F)(F)C(F)C(F)(F)F)cc2)nc2c1c(=O)[nH]c(=O)n2CC(C)C (configuration not stated) | i
COc1ccccc1NCc1nnc(SCC(=O)N/N=C/c2ccco2)n1-c1ccc(Cl)cc1Cl | i
Cc1cc2ncn(/N=C/c3ccc([N+](=O)[O-])o3)c2cc1C | i
C=C(C)CN1CCN(c2c(CCC#N)c(C)c(C#N)c3nc4ccccc4n23)CC1 | 1.3
CC[N+](C)(C)CCN(Cc1ccc(Cl)cc1)c1ccccn1 | i
COc1ccc(/C=N/NC(=O)c2nc(-c3ccccc3)cc(-c3ccccc3)n2)cc1 | 2.0
COc1cc(Br)cc(-c2nc3c(c(=O)[nH]c(=O)n3Cc3ccccc3)n2C)c1O | i
CN(C)S(=O)(=O)c1ccc(C(=O)Nc2cccc(C(=O)O)c2)cc1 | 1.0
Cc1onc(-c2ccccc2Cl)c1C(=O)Nc1nnc(-c2ccc(Br)cc2)s1 | i
CCOCCCn1c(=NC(=O)c2cccnc2)c(C(=O)OCC)cc2c(=O)n3ccccc3nc21 | 1.6
CCOc1cccc(C=Nc2cc(C)cc(C)c2O)c1O | 2.1
Cc1cc(C)n(CCOC(=O)C2C(C=C(Cl)Cl)C2(C)C)n1 (configuration not stated) | i

The list goes on.
SMILES | H5N1 antiviral
C=CCN1C(=O)C(CC(=O)Nc2ccc(C)cc2)SC1=Nc1c(C)n(C)n(-c2ccccc2)c1=O (configuration not stated) | i
O=C(O)c1ccc(-n2c(-c3ccc(Br)cc3)n[nH]c2=S)cc1 | 0.8
O=C1CC(NNc2nc3ccccc3s2)C(=O)N1c1ccccc1 (configuration not stated) | 0.3
CCOC(=O)c1sc(NC(=O)c2cc3c(s2)CCC(C)C3)nc1C (configuration not stated) | i
COc1ccc(-n2c(Cn3c(=O)sc4ccccc43)nnc2SCC(=O)N2CCCCC2)cc1 | 1.4
C=CCSc1nn2c(=O)c3ccccc3nc2s1 | 18
COc1ccc(Cn2c(CCC(=O)Nc3ccc(CC#N)cc3)nc3cccnc32)cc1 | i
Cc1ccc(C(=O)Nc2ccccc2OC(F)F)cc1 | 0.1
COc1ccc(C(=O)CSc2nnc(C3CC3)n2N)cc1 | 1.0
CCOC(=O)C1CCCN(CC(=O)Nc2c(C(=O)OC)[nH]c3ccc(Cl)cc23)C1 (configuration not stated) | 1.7
O=C(NCc1ccco1)c1cc(-c2ccccc2)on1 | i
Cc1ccc(C2C(=O)N(C3CCC(C)CC3)CC(=O)N2C2CCCC2)cc1 (configuration not stated) | i
CCC(=Nc1ccc(OC)cc1OC)c1c(O)[nH]c(=O)[nH]c1=O | 1.6
O=C(OCC(=O)N1N=C(c2ccc(Cl)cc2)CC1c1ccco1)c1ccccc1O (configuration not stated) | i
CCNC(=O)NC(=O)C(C)OC(=O)c1oc2ccc(OC)cc2c1C (configuration not stated) | i
C/C(=N\NC(=O)c1ccc(Cl)c(Cl)c1)c1cccc(NC(=O)C(C)C)c1 | 1.4
Cc1ccc(-c2n[nH]c(=S)n2C)cc1 | 0.6
O=C(CC(NC(=O)c1ccccc1Cl)c1ccccc1)Nc1ccc2c(c1)OCO2 (configuration not stated) | i
Cc1ccc(-c2ccc(/C=N\NC(=O)C3C(=O)NCC3c3ccccc3)o2)cc1Cl (configuration not stated) | 8.7
Cc1cc(C(=O)OCn2nnc3ccccc3c2=O)c(C)n1-c1ccccc1 | i
O=C(Nc1ccc(Br)cc1Cl)Nn1cnnc1 | i
Cc1ccc(-c2nnn(CC(=O)N(c3ccccc3F)C(C(=O)NCC3CCCO3)c3c[nH]c4ccccc34)n2)cc1 (configuration not stated) | 5.5
Cc1cccn2c(=O)c3cc(C#N)c(=N)n(Cc4ccncc4)c3nc12 | 1.1
CC(=O)Oc1ccc(C(=O)Nc2ccc3c(c2)C(=O)N(CCC(=O)O)C3=O)cc1 | i
COc1ccc(C2SCC(C(=O)O)N2C(C)=O)cc1OC (configuration not stated) | 0.6
Nc1nc(C2CCCN2S(=O)(=O)c2ccc(Cl)cc2)cs1 (configuration not stated) | 0.4
CC(=O)N1CCc2cc(C(=O)CN3CCCN(Cc4ccc(F)cc4)C3)ccc21 | 0.5
CC(C)c1ccc(C(CC(=O)c2ccc(Cl)cc2)C(=O)O)cc1 (configuration not stated) | i
Cc1cc(NC(=O)c2cc(-c3ccc4c(c3)OCO4)on2)n(-c2ccccc2)n1 | i
CCCN(CCC)S(=O)(=O)c1ccc(C(=O)N2CCOCC2)cc1 | i
Cc1nn(CC(=O)O)c(=O)c2ccccc12 | i
CCc1ccc(/C(C)=N\Nc2ccc([N+](=O)[O-])cc2)cc1 | i
NC(=O)CSc1nnc(Cn2c(=O)sc3ccccc32)n1-c1ccccc1 | 0.4
Cc1ccc(C2CC(=O)NC(SCC(=O)Nc3nccs3)=C2C#N)cc1 (configuration not stated) | 2.0
Cc1cccc(C)c1NC(=O)c1cccn(Cc2ccc3c(c2)OC(F)(F)O3)c1=O | i
CC(C)CCNC(=O)CN(CCN1CCOCC1)C(=O)Cn1nnc(-c2ccc(F)cc2)n1 | 0.3
COc1ccc(Nc2nc(N)nc(CSCCO)n2)cc1 | 1.4
COc1ccccc1N1CCN(C(=O)CSc2nnc(NC(=O)C3CCC3)s2)CC1 | 1.1
Cc1ccc(C(c2sc3nc(C)nn3c2O)N2CCOCC2)cc1 (configuration not stated) | i
Cc1ccc2[nH]c(=O)c(C(c3nnnn3CC3CCCO3)N3CCc4ccccc4C3)cc2c1 (configuration not stated) | i
Cc1c(Cl)c([N+](=O)[O-])nn1CC(=O)Nc1c(C)n(C)n(-c2ccccc2)c1=O | 0.2
Cc1cc(OC(=O)CNC(=O)OC(C)(C)C)c2c(C)cc(=O)oc2c1 | 1.2
Cc1ccccc1NC(=O)CSc1nc2ccccc2o1 | i
CC(=NCC1CCNCC1)C1=C(O)CC(C)(C)CC1=O | 1.6
O=C(Cn1nc(Cc2ccncc2)c2ccccc2c1=O)N1CCc2ccccc2C1 | 1.8

Compounds from the list above that have a COOH group, in the order listed:
SMILES | H5N1 antiviral
COc1cc(-c2cc(C(=O)O)c3cc4c(cc3n2)OCCO4)cc(OC)c1OC | 2.2
O=C(O)CCc1ccc(-c2ccccc2)n1NC(=O)c1ccco1 | i
CN(C)S(=O)(=O)c1ccc(C(=O)Nc2cccc(C(=O)O)c2)cc1 | 1.0
O=C(O)c1ccc(-n2c(-c3ccc(Br)cc3)n[nH]c2=S)cc1 | 0.8
CC(=O)Oc1ccc(C(=O)Nc2ccc3c(c2)C(=O)N(CCC(=O)O)C3=O)cc1 | i
COc1ccc(C2SCC(C(=O)O)N2C(C)=O)cc1OC (configuration not stated) | 0.6
CC(C)c1ccc(C(CC(=O)c2ccc(Cl)cc2)C(=O)O)cc1 (configuration not stated) | i
Cc1nn(CC(=O)O)c(=O)c2ccccc12 | i

Three entries from above, arranged by count of non-hydrogen atoms, falling.
SMILES | H5N1 antiviral
CC(C)CCNC(=O)CN(CCN1CCOCC1)C(=O)Cn1nnc(-c2ccc(F)cc2)n1 | 0.3
O=C(Cn1nc(Cc2ccncc2)c2ccccc2c1=O)N1CCc2ccccc2C1 | 1.8
Cc1nn(CC(=O)O)c(=O)c2ccccc12 | i

Following part
SMILES | H5N1 antiviral
CC(C)NC(=O)CSc1nnc(COc2ccccc2Cl)o1 | 0.3
CC(C)CCNC(=O)NC(=O)COc1c(F)c(F)cc(F)c1F | i
OCCNCCCOc1ccc(Cl)cc1Br | i
COc1ccc(C2C(C(C)=O)=C(O)C(=O)N2CCc2ccccc2)c(OC)c1 (configuration not stated) | 0.2
Cc1cc(NS(=O)(=O)c2ccc(NC(=O)CCCOc3ccc(Cl)cc3)cc2)no1 | 0.4
CCOC(=O)c1sc(=S)sc1SCc1cccc(C(F)(F)F)c1 | 0.3
Cn1c(-c2ccc(F)cc2)cnc1NCc1ccc(F)cc1 | i

As entered above:
CC(C)NC(=O)CSc1nnc(COc2ccccc2Cl)o1 – H5N1 antiviral = 0.3
CCOC(=O)c1sc(=S)sc1SCc1cccc(C(F)(F)F)c1 – H5N1 antiviral = 0.3
Cc1cc(NS(=O)(=O)c2ccc(NC(=O)CCCOc3ccc(Cl)cc3)cc2)no1 – H5N1 antiviral = 0.4

This is a subset; count on the stated rates, not on these rows.
